# Screening results as filed in PubChem BioAssay.
# rRNA inh HTS = inhibits bacterial ribosomal RNA function over humanized ribosomes | GFP signal change (wild-type ribosome), % (no concentration beside the values) | E. coli WT GFP vs humanized-ribosome RFP mutants, fluorescence, 24 h; stronger effect = lower value; DMSO median 0, no signal -100 | actives 1.6% (n = 350,000);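 active means significant combined selectivity score with lowered wild-type GFP, culture density cut under 30%, mutant RFP and density less affected; inactive means any of these conditions unmet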; further: one replicate is shown; some compounds called inactive have numbers as strong as hits
# T cruzi repl = T. cruzi replication inhibition; inhibition, % (no concentration beside the values); actives 1.4% (n = 300,000); T. cruzi beta-gal in NIH3T3, luminescence, 90 h;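 active means mean inhibition across valid replicates above about 55%, limit read from the data; inconclusive means mean below that limit but half or more replicates reach it; inactive means mean below it, under half of replicates reach it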;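 further: signal also drops with host cell toxicity which is not excluded here; 0% = plate median of DMSO wells and 100% = zero luminescence signal; higher percent means less beta-gal luminescence so fewer parasites; stock transfer was 50 nL into about 50 µL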
# AF4-AF9 inh = inhibitors of human MLL-AF4/AF9 interaction; AlphaScreen, biotin-AF4 peptide binding to FLAG-AF9; inhibition, % at 10 µM; P42568; AID 651704; actives 0.47% (n = 350,000);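 active means every replicate reaching a set inhibition limit, whatever the replicate mean, cut at about 25% in these data; inconclusive means mean inhibition reaches that limit but some replicates miss it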;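 further: 0% = plate neutral control median and 100% = total signal loss; the record names both 10 and 1 µM as test concentration; the first replicate is given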
# Target sequence (P42568 whole entry, looked up): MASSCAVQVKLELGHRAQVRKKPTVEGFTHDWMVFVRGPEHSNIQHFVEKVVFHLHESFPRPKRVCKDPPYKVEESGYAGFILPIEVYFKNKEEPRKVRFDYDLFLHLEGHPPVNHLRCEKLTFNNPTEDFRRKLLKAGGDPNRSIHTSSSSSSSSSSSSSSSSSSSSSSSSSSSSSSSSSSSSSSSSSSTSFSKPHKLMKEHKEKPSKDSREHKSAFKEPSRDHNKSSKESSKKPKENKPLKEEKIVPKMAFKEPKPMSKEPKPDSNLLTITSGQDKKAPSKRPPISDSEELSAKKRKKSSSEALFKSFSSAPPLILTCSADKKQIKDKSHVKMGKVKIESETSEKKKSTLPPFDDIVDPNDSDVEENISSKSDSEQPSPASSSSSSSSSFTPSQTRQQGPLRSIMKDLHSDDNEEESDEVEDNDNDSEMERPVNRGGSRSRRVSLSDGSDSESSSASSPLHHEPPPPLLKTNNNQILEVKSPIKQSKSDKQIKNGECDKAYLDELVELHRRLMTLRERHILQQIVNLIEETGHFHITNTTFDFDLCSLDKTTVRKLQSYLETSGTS
# FGF22 binding = binders of recombinant human FGF22 by thermal shift; SYPRO orange fluorescence; percent of sucrose octasulfate shift, DMSO zero; Q9HCT0; actives 1.5% (n = 340,000); calls only at 9.99 µM;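 active means melting point raised past a set limit in the mean and every replicate; inconclusive means no clear call; three in four hits are not shown here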
# Target sequence (Q9HCT0 whole entry, looked up): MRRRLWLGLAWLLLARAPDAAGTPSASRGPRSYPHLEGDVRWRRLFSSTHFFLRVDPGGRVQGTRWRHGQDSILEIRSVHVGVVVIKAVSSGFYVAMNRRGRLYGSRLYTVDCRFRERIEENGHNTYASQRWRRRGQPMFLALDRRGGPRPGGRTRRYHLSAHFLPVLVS
# UCH37 inh = inhibitors of human deubiquitinating enzyme UCH37; Q9Y5K5; purified proteasome/UCH37, Ub-AMC cleavage fluorescence; inhibition, % (concentration not given with the values); actives 0.33% (n = 330,000); AID 588478;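 active means mean of two replicates above 20%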;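 further: 0% = compound-free wells with enzyme and 100% = wells lacking proteasome; stock transfer was 100 nL into about 20 µL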
# Target sequence (Q9Y5K5 whole entry, looked up): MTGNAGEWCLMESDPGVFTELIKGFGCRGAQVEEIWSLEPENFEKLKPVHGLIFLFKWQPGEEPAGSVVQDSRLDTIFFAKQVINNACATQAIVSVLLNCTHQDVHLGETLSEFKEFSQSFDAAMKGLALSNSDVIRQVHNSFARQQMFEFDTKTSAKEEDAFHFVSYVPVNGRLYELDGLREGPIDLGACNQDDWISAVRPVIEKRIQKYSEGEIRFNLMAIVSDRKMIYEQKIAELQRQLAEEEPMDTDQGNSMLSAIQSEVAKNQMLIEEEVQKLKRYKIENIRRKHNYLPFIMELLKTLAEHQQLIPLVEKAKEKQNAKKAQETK
#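 Assay system: Proteasome-bound UCH37. Buffer or medium: pH 7.4 Tris-HCl (50 mM) with ovalbumin, ATP-MgCl2, DTT. Incubation: 30 min preincubation with enzyme, 25 min cleavage at room temperature. Measured by: fluorescence, ex 355 nm, em 460 nm. Read-out basis: percent inhibition. Control set: wells without proteasome as full block, compound-free enzyme plus substrate as uninhibited.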
# A1 inh = inhibitors of the anti-apoptotic protein A1, read as caspase activation | MEF A1-2A-BIM cells, Caspase-Glo 3/7 luminescence, 3 h; percent of clofoctol response, vehicle zero | caspase activation, % (concentration not given with the values) | actives 0.066% (n = 330,000);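 active means over half of replicate activation scores above 10%, or exactly half above 10 with the replicate mean above 10; inconclusive means replicate mean below 10 yet half the replicates above 10; inactive means over half of replicates below 10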;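 further: wells of about 30 µL received 50 nL stock; many hits fall short of the cut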
# E coli growth = inhibitors of Escherichia coli growth. OD600, 23 h; stronger effect = lower value. OD600 absorbance (no concentration beside the values). actives 0.21% (n = 330,000). AID 1053175;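 active means OD600 absorbance below the run mean of sample wells minus 3.6 SD, in any replicate, cut at about 0.56 in these data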;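 further: stock transfer was 300 nL into about 60 µL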
# Beta apoptosis = beta cell apoptosis inhibition; INS-1E cytokine-induced death, ATP luminescence, 48 h; percent of positive-control rescue, neutral wells zero; protection from apoptosis, % (test concentration not listed); actives 0.8% (n = 300,000); AID 435005;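 active means all replicates at 75% or more, or half of them and the mean; inconclusive means half reach 75% but not the mean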;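 further: 0% = cytokine-treated negative control wells and 100% = positive control rescue; higher means more ATP so stronger rescue from cytokine killing; wells of about 40 µL received 100 nL stock; the first replicate is given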
# rRNA inh HTS OD600 = recorded beside rRNA inh HTS, whose call it bears; OD600 change, %; measured here: OD600 growth;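 optical density of the mix in the first replicate; 0 = DMSO median and -100 = no signal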
# rRNA inh HTS RFP = recorded beside rRNA inh HTS, whose call it bears; RFP signal change, %; measured here: RFP humanized mutant strains;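 first replicate; 0 = DMSO median and -100 = no signal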
# * marks the source's active call; other numbers are inactive results; i = inactive; ? = inconclusive; . = not tested or not shown.
# Start of the data: the first six entries, to show the layout:
SMILES,rRNA inh HTS,rRNA inh HTS OD600,rRNA inh HTS RFP,T cruzi repl,AF4-AF9 inh,FGF22 binding,UCH37 inh,A1 inh,E coli growth,Beta apoptosis
CC(=O)N(c1ccc(C)cc1)S(=O)(=O)c1ccc(Cl)cc1,17,4,-2.1,8,-0.7,.,2.1,-0.2,0.67,1
CN1CCc2c(n(CC(O)CN(CCO)CCO)c3ccccc23)C1=O (centres undefined),13,3,3.1,3,-1.5,i,-0.3,0.2,0.72,0
c1ccc(CCc2nn3c(C4COc5ccccc5O4)nnc3s2)cc1 (centres undefined),.,.,.,-3,.,.,0.7,-0.1,0.68,-2
Cc1ccc(-c2nc(C#N)c(NCCc3ccccn3)o2)cc1,.,.,.,-15,.,.,-3.1,-2.1,0.8,-1
Cc1ccsc1C(=O)NNC(=S)NC1CCCCC1,-11,-13,2.8,-14,0.2,i,-1.0,0.7,0.66,14
Cc1ccccc1NC(=O)Cn1cnc2c(oc3ccccc32)c1=O,.,.,.,-2,.,.,3.7,0.1,0.65,0

# Results, previewed entries included:
SMILES,rRNA inh HTS,rRNA inh HTS OD600,rRNA inh HTS RFP,T cruzi repl,AF4-AF9 inh,FGF22 binding,UCH37 inh,A1 inh,E coli growth,Beta apoptosis
CC(=O)N(c1ccc(C)cc1)S(=O)(=O)c1ccc(Cl)cc1,17,4,-2.1,8,-0.7,.,2.1,-0.2,0.67,1
CN1CCc2c(n(CC(O)CN(CCO)CCO)c3ccccc23)C1=O (centres undefined),13,3,3.1,3,-1.5,i,-0.3,0.2,0.72,0
c1ccc(CCc2nn3c(C4COc5ccccc5O4)nnc3s2)cc1 (centres undefined),.,.,.,-3,.,.,0.7,-0.1,0.68,-2
Cc1ccc(-c2nc(C#N)c(NCCc3ccccn3)o2)cc1,.,.,.,-15,.,.,-3.1,-2.1,0.8,-1
Cc1ccsc1C(=O)NNC(=S)NC1CCCCC1,-11,-13,2.8,-14,0.2,i,-1.0,0.7,0.66,14
Cc1ccccc1NC(=O)Cn1cnc2c(oc3ccccc32)c1=O,.,.,.,-2,.,.,3.7,0.1,0.65,0
CC(NC(=O)Cc1c(F)cccc1Cl)C1CCCO1 (centres undefined),.,.,.,-23,.,.,2.9,-0.6,0.71,-2
c1ccc2nc(N3CCN(Cc4ccc5c(c4)OCO5)CC3)cnc2c1,-29,-40,-2.2,26,2.8,i,-1.8,0.1,0.67,-1
CCOCCCNC(=S)N1CCC(NC(=O)C23CC4CC(CC(C4)C2)C3)CC1,4,1,-1.8,31,-2.2,i,-1.2,-0.1,0.69,-6
Cc1nn(-c2ccccc2)c(C)c1/C=C/C(=O)OC(C)C(=O)Nc1ncc(Cl)cc1Cl (centres undefined),.,.,.,-3,.,.,1.5,0.5,0.69,-1
COc1cccc(OC)c1C(=O)N1CCN(S(=O)(=O)c2ccc(C)cc2)CC1,.,.,.,8,.,.,5.8,0.8,0.79,-2
OC(CNCCCCNCC(O)C(F)(F)F)C(F)(F)F (centres undefined),11,3,2.0,-13,-0.3,i,3.3,0.9,0.68,-3
Cc1ccc2nc(Nc3ccc(C)c(C)c3)c3nncn3c2c1,9,15,0.9,30,0.2,i,-88,-0.1,0.68,-11
COC(=O)c1nc(NC(=S)NC(=O)c2cccs2)sc1C,-19,-13,0.1,-15,1.2,i,.,-2.5,.,1
O=C(Nc1cccs1)NC1CCCC1,.,.,.,-9,.,.,0.7,-0.6,0.75,1
O=C(NC1CCCCCC1)C1CCCN(c2ncccn2)C1 (centres undefined),-2,0,1.6,-4,4.6,i,.,0.4,.,-6
COc1ccc(/C=C/C(=O)Nc2ccccc2F)cc1S(=O)(=O)N1CCOCC1,-20*,-2.0*,7.5*,.,0.3,i,2.8,-1.0,0.67,0
CCC(=O)N=c1ccn(C2=Nc3ccccc3NC2=C(C#N)C#N)cc1,7,5,5.8,-11,-10,i,3.8,-0.3,0.69,5
Cc1noc(C)c1COc1ccccc1C(=O)N1CCN(S(=O)(=O)c2cccc([N+](=O)[O-])c2)CC1,2,16,-1.7,.,1.2,i,-2.6,-0.2,0.69,-2
CC(C)c1ccc(N2C=Nc3ccc(C(C)C)cc3C2)cc1,-52,-50,-14,27,1.7,i,0.5,0.9,0.63,25
COc1ccc(-c2noc(CCC(=O)NC3CCCCC3)n2)cc1,1,7,0.8,-17,1.0,i,4.6,0.5,0.73,.
O=C(CCC(=O)OCc1ccc([N+](=O)[O-])cc1)Nc1ccc(F)cc1,.,.,.,-7,.,.,4.2,0.0,0.74,-6
COc1ccc(N2CCN(C(=O)C3CCCN(S(=O)(=O)c4ccc(F)cc4)C3)CC2)cc1 (centres undefined),-18,-13,-5.8,20,9.0,i,2.5,1.5,0.68,2
Cc1cc(C)cc(N(C(=O)c2csnn2)C(C(=O)NC2CCCC2)c2ccccn2)c1 (centres undefined),3,1,-1.5,9,0.2,i,2.8,-0.1,0.62,0
CC(C=NNc1ccc([N+](=O)[O-])cn1)=Cc1ccccc1,-9,10,9.4,.,0.0,i,2.9,.,0.7,.
# Continued:
SMILES,rRNA inh HTS,rRNA inh HTS OD600,rRNA inh HTS RFP,T cruzi repl,AF4-AF9 inh,FGF22 binding,UCH37 inh,A1 inh,E coli growth,Beta apoptosis
O=[N+]([O-])c1ccccc1Oc1ccc(S(=O)(=O)N2CCOCC2)cc1,-6,-6,-0.6,.,2.5,i,3.4,-0.6,0.69,3
CS(=O)(=O)NCC(c1ccco1)N1CCN(c2ccc(F)cc2)CC1 (centres undefined),.,.,.,-16,.,.,2.2,1.4,0.68,1
COc1cc(SC)ccc1C(=O)Nc1ccc2c(c1)OCO2,-12,-3,-1.1,15,-0.5,i,4.5,.,0.67,.
COC(=O)c1ccccc1NC(=O)Cn1c(-c2nonc2N)nc2ccccc21,.,.,.,-19,3.5,i,-0.2,-0.3,0.71,15
FC(F)(F)c1cccc(NC(=S)NCC2COc3ccccc3O2)c1 (centres undefined),.,.,.,-15,.,.,4.9,0.3,0.62,-7
O=C(Cn1cnc2ccccc21)c1ccc(Br)cc1,-28*,12*,-6.6*,-1,3.1,i,5.4,-0.3,0.68,-2
Cc1sc(NC(=O)c2cccc([N+](=O)[O-])c2)c(C(N)=O)c1-c1ccc(C(C)(C)C)cc1,.,.,.,11,.,.,4.1,-0.2,0.72,3
CCOc1cc(C(=S)N2CCCCC2)ccc1OS(=O)(=O)c1ccc(Cl)cc1,.,.,.,38,.,.,4.7,0.3,0.74,29
CCn1ncc(C(=O)Nc2ccc(F)cc2)c1C,0,10,-1.3,-11,8.6,i,4.8,-2.6,0.67,-4
COc1ccc(C2CC(c3cccs3)=NN2C(=O)CSc2nc3c(cnn3-c3ccccc3)c(=O)[nH]2)cc1 (centres undefined),1,8,-3.5,17,4.3,i,-53,-0.2,0.78,3
CC1(C)CC(=O)C/C(=N\NC(=O)C2C3CCCCC32)C1 (centres undefined),7,8,2.8,2,0.9,i,.,0.2,.,-1
Cc1cccc2c1NC(C)CC2C (centres undefined),.,.,.,59*,.,.,0.9,0.4,0.71,11
CCOC(=O)CNc1ccc2c(c1)OCO2,.,.,.,12,.,.,2.6,0.5,0.73,-1
COc1cccc(N2CCN(C(=O)c3cccc(NC4=NC5CS(=O)(=O)CC5S4)c3)CC2)c1 (centres undefined),3,4,-2.5,-8,0.1,i,4.7,-0.3,0.73,-1
CC(C)(C)OC(=O)N1CCC(CC2CC(c3ccccc3)=NO2)(C(=O)NCc2ccccc2)CC1 (centres undefined),-12,-15,-2.8,.,.,i,0.0,-0.7,0.63,7
COc1cc(C(=S)N2CCOCC2)ccc1OC(=O)c1ccccc1,4,8,-0.5,-10,2.2,i,5.6,0.9,0.69,3
CCOC(=O)c1cc(C#N)c(=S)[nH]c1C,-3,-9,-4.7,3,-9.8,i,10,0.4,0.68,-12
COc1ccccc1C=NNC(=O)c1ccccc1OCCOc1ccccc1,-31*,-13*,-3.7*,.,2.5,i,5.0,0.2,0.67,5
CCN1C(=O)S/C(=C/c2ccsc2)C1=O,.,.,.,-14,.,.,5.0,-2.1,0.65,-1
CCCn1c(SCC(=O)c2ccc(OC)c(OC)c2)nc2c1c(=O)n(C)c(=O)n2C,.,.,.,6,.,.,-0.7,0.4,0.69,0
Cc1onc(-c2ccccc2)c1C(=O)OCC(=O)N(C)c1ccccc1,.,.,.,.,-2.2,i,2.0,0.4,0.68,-2
Cc1csc(NC(=O)Cc2ccccc2Cl)n1,-2,0,1.6,-2,0.2,i,0.3,0.7,0.64,-1
COCc1nnc(NC(=O)c2ccc(Cl)cc2[N+](=O)[O-])s1,.,.,.,-15,.,.,6.6,0.3,0.67,-3
Cc1ccc(-c2nc(C3CCN(S(=O)(=O)c4ccc(C(F)(F)F)cc4)CC3)no2)cc1,.,.,.,13,.,.,-0.4,0.9,0.72,-1
N#CCCn1cc(/C=N/NC(N)=S)c(-c2ccc(Br)cc2)n1,-8,-16,-2.0,4,11,i,.,0.2,.,4
# More results follow.
SMILES,rRNA inh HTS,rRNA inh HTS OD600,rRNA inh HTS RFP,T cruzi repl,AF4-AF9 inh,FGF22 binding,UCH37 inh,A1 inh,E coli growth,Beta apoptosis
COc1ccccc1OCCn1cc(/C=C(\C#N)C(=O)NCc2cccs2)c2ccccc21,11,10,1.9,9,2.3,i,-8.4,?,0.76,1
C/C(CC(=O)Nc1ccccn1)=N\NC(=O)c1ccc([N+](=O)[O-])cc1Cl,5,7,-2.2,-4,-1.3,i,.,0.1,.,-7
CCN(C[C@H]1N[C@@](Cc2ccccc2)(C(=O)OC)[C@H]2C(=O)N(Cc3ccccc3)C(=O)[C@@H]12)C(=O)Nc1ccc(F)cc1,2,1,5.0,.,-4.7,i,3.6,.,0.7,.
COc1ccc(C2=CC(=O)C[C@H](c3ccc(OC)c(OC)c3)C2)cc1,-16,-29,-15,.,1.5,i,6.5,-1.3,.,-2
CCCN1C(=O)c2cc(C(=O)Nc3ccccc3CC)ccc2C1O (centres undefined),-8,11,-14,-5,-1.8,i,4.1,0.3,0.72,.
COC(=O)c1ccccc1NC(=O)Cn1cnc2c(cnn2-c2ccccc2)c1=O,15,4,-5.5,-2,8.0,i,0.7,-0.1,0.75,-2
S=C(NCc1ccncc1)Nc1ccc(Br)cc1,-20,-13,-3.5,-8,3.8,i,1.9,0.8,0.58,2
Cc1ccc(NC(=O)Cc2noc3ccccc23)cc1,.,.,.,6,.,.,4.1,-3.6,0.71,3
CC(C)c1ccc(NC(=O)CN2C(=O)NC(Cc3c[nH]c4ccccc34)C2=O)cc1 (centres undefined),2,-18,2.0,.,?,i,1.3,.,0.72,.
COC(=O)c1sccc1NC(=O)CSc1cccc(Cl)c1Cl,.,.,.,-23,.,.,3.0,0.4,0.7,4

# These rows are one share of the data, so the mix of outcomes need not match the whole.
